Bioassay records as filed in PubChem.
HTT promoter inh: inhibits huntingtin promoter activity. HEK293 HTT promoter firefly luciferase reporter (activity 0% = vehicle and -100% = no light), 24 h. 48,000 tested, 0.93% active. Potency, µM (doses to about 57.5 µM), for the others: at the top dose activity change, negative = inhibition, actives largely listed as inhibitors. AID 1508623; active = well fitted inhibition curve with a large enough effect; inconclusive = small, poorly fitted or top-dose-only effect; inactive = no such curve, though single readings can be large or run the other way; also: nearly all actives have a fitted effect of over 50% in size
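Firefly luciferase readout (Dual-Glo, 10 min RT) after 24 h, 37 °C compound exposure (final up to 57.5 uM) of HEK293 reporter cells cultured 24 h beforehand; PTC124 at 50 uM final as control inhibitor; activity scaled vehicle 0%, zero RLU -100%.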
PMP22 txn: modulators of PMP22 gene transcription in S16 Schwann cells. S16 Pmp22-F2sN Schwann cells (luciferase reporters placed in the Pmp22 gene), FLuc/NLuc coincidence luminescence, 24 h. Potency, µM (doses to about 57.5 µM), inactives show at the top dose activity change, negative = inhibition, most hits filed as inhibitors. 43,000 tested, 2% active. AID 1508649; active = clear falling dose curves in both reporters; inconclusive = both reporters move, but less clearly or upward; inactive = either reporter flat; the % is the NLuc reporter signal; also: % is scaled to controls: 0 for no effect and ±100 for the full control effect; some results filed as inactive show a strong effect at the top dose
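Luminescent read-out of sequential FLuc and NLuc signals from a reporter embedded in the Pmp22 3' UTR of S16 Schwann cells, taken after 24 h compound exposure at 37C; compounds reducing both signals score as inhibitors of expression.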
Starred values were filed as active, the others as inactive; ? = inconclusive; / = no result given; & = joins results of further samples; [ ] = dose if it differs, or a comment. Potency is read from the fitted curve at half-maximal effect. These rows are one share of the data; the hit share may differ from the screen's.

molecule | HTT promoter inh | PMP22 txn
COc1ccc(OC)c(NC(=O)C(C)n2nc(C)c3c(C)n(-c4ccccc4)nc3c2=O)c1 (configuration not stated) | ? | ?
Cc1ccc(-c2nc(CS(=O)(=O)CC(=O)NC(C)CCc3ccccc3)c(C)o2)cc1 (configuration not stated) | ? | ?
COc1cccc(NC(=O)C(Cc2ccccc2)NS(=O)(=O)c2ccc3c(c2)oc(=O)n3C)c1 (configuration not stated) | ? | ?
CCCCN(CC)CCCNC(=O)Cn1ncc2c3ccccc3n(Cc3ccc(F)cc3)c2c1=O | -15% | -7%
Cc1nn(-c2ccccc2)c(-n2cccc2)c1C(=O)NCc1ccccc1Cl | ? | -103%
COc1ccc(CCN2C(=O)N(c3ccccc3)C(=O)C2CC(=O)Nc2ccccc2)cc1 (configuration not stated) | -26% | -10%
CCCCn1c(=N)n(CCCOc2ccc(F)cc2)c2ccccc21 | -30% | ?
Cc1ccc(-n2ncc(C(=O)NC3CCCC3)c2C2CCN(C(=O)OC(C)(C)C)CC2)c(C)c1 | ? | ?
CCOC(=O)c1c(C)[nH]c(C)c1S(=O)(=O)N1CCCC(C(=O)NCc2ccccc2Cl)C1 (configuration not stated) | -28% | ?
Cc1ccc(CNC(=O)C(=O)NCC(c2ccc3c(c2)OCO3)N2CCOCC2)cc1 (configuration not stated) | -11% | -26%
O=C(NCc1ccco1)c1ccc2c(c1)N(Cc1c(F)cccc1Cl)C(=O)c1ccccc1S2 | -23% | ?
O=C(OCC1CCCO1)c1ccc2c(c1)N(Cc1cccc(F)c1)C(=O)c1ccccc1S2(=O)=O (configuration not stated) | 5% | -5%
Cc1cc(C)cc(OC(C)C(=O)Nc2nc3c(s2)CCCC3)c1 (configuration not stated) | -20% | -15%
CCN(CCCNC(=O)c1ccc(Sc2ccc(C)cc2)c(NC(C)=O)c1)c1cccc(C)c1 | ? | ?
CCCc1nn2c(=O)cc(COC(=O)c3ccccc3NC(=O)c3ccc(OCC)cc3)nc2s1 | 0% | ?
Cc1ccc(-c2nnc(Nc3ccc(Cl)cc3)c3ccccc23)cc1S(=O)(=O)NCC1CCCO1 (configuration not stated) | -28% | ?
CCOC(=O)CC(NC(=O)Cn1nnc(-c2ccc(C(F)(F)F)cc2)n1)c1ccc(OC)cc1 (configuration not stated) | -23% | ?
Cc1[nH]c(=O)c(C#N)cc1-c1ccc2nccn2c1 | 22%&6% | /
Cc1ccc(C)c(N2CCN(C(=O)CCC(=O)Nc3ccc4nc(N5CCCCC5)cc(C)c4c3)CC2)c1 | -25% | ?
O=C(Cn1c(=O)n(Cc2nc(-c3ccccc3)no2)c(=O)c2ccccc21)Nc1cccc(Cl)c1 | ? | ?
O=C(NCc1ccccc1)c1nnc(Cc2cccc(F)c2)o1 | -7% | -14%
CCOc1ccccc1NC(=O)N1CCC2(CC1)Oc1ccccc1C(=O)N2Cc1ccccc1F | ? | ?
CCc1nnc2c(N3CCN(c4cc(Cl)ccc4C)CC3)nc3ccccc3n12 | -6% | -3%
O=C1CS(=O)(=O)C2(C(=O)N(Cc3ccc(F)cc3)c3ccccc32)N1c1cccc(C(F)(F)F)c1 (configuration not stated) | ? | -20%
COc1ccc2c(CNCCc3cccs3)c(C(=O)O)n(Cc3ccc(F)cc3Cl)c2c1 | ? | ?

In a second layout: entries from further up
Sequence of screens – HTT promoter inh, PMP22 txn
- COc1ccc(OC)c(NC(=O)C(C)n2nc(C)c3c(C)n(-c4ccccc4)nc3c2=O)c1 (configuration not stated)
    ?, ?
- CCOc1ccccc1NC(=O)N1CCC2(CC1)Oc1ccccc1C(=O)N2Cc1ccccc1F
    ?, ?
- O=C(NCc1ccccc1)c1nnc(Cc2cccc(F)c2)o1
    -7%, -14%
- CCOC(=O)CC(NC(=O)Cn1nnc(-c2ccc(C(F)(F)F)cc2)n1)c1ccc(OC)cc1 (configuration not stated)
    -23%, ?
- CCCc1nn2c(=O)cc(COC(=O)c3ccccc3NC(=O)c3ccc(OCC)cc3)nc2s1
    0%, ?
- CCc1nnc2c(N3CCN(c4cc(Cl)ccc4C)CC3)nc3ccccc3n12
    -6%, -3%
- Cc1cc(C)cc(OC(C)C(=O)Nc2nc3c(s2)CCCC3)c1 (configuration not stated)
    -20%, -15%

(further entries)
molecule | HTT promoter inh | PMP22 txn
Cc1ccc(CN(Cc2ccco2)C(=O)c2oc3cc(Br)ccc3c2C)cc1 | ? | -36%
Cc1nc2scc(C)n2c(=O)c1S(=O)(=O)Nc1ccc(N2CCOCC2)c(Cl)c1 | ? | ?
Cc1ccc(-n2c(=O)c3ccc(C(=O)NCc4ccccc4Cl)cc3n(CC(=O)Nc3ccc(C)cc3C)c2=O)cc1 | -14% | 15µM*
COc1ccccc1N1CCN(S(=O)(=O)c2ccc3[nH]c4c(c3c2)CCCC4)CC1 | -31% | ?
CCn1c(CN2CCC(C)CC2)nc2cc(NC(=O)c3cccc([N+](=O)[O-])c3)ccc21 | ? | ?
Cc1ccc2c(c1)-c1onc(C(=O)N(C)c3ccc(F)cc3)c1CO2 | 23% | -7%
CCOC(=O)c1cc2c(=O)n3ccccc3nc2n(CC2CCCO2)c1=NC(=O)c1cccc(C(F)(F)F)c1 (configuration not stated) | -20% | 4.9µM*
CSc1ccc(-c2nc3cccc(C)n3c2Nc2ccc(Cl)cc2)cc1 | 10% | ?
CCCn1c2ccccc2c2cnn(CC(=O)NCCCN(Cc3ccccc3)C(C)C)c(=O)c21 | -9% | ?
CC1=C(C(=O)Nc2ccc(Cl)cc2)C(c2ccccc2F)n2nc(SCc3cccc(Cl)c3)nc2N1 (configuration not stated) | -4% | -33%
COc1ccccc1CNC(=O)CS(=O)Cc1nc(-c2ccc(OC)c(OC)c2)oc1C (configuration not stated) | -4% | -29%
CNC(=O)C1CCC(Cn2c(=O)c3sccc3n(Cc3ccc(F)cc3)c2=O)CC1 (configuration not stated) | -7% | 6%
CC1=C(C(=O)Nc2ccccc2)C(c2cc(Br)ccc2F)n2ncc(C(=O)Nc3ccccc3)c2N1 (configuration not stated) | ? | 2%
O=C(CCNS(=O)(=O)c1ccc2c(c1)CCCC(=O)N2)Nc1cccc(Cl)c1 | -8% | 1%
COc1cc(C2c3c(-c4c(C)cc(C)cc4O)n[nH]c3C(=O)N2Cc2ccco2)cc(OC)c1OC (configuration not stated) | -33% | -27%
COc1ccc(OC)c(NC(=O)N2CC(C)Oc3ccc(C)cc32)c1 (configuration not stated) | -17% | -6%
O=C(Nc1ccc(S(=O)(=O)N2CCCCCC2)cc1)c1cc(=O)c2ccccc2o1 | -27% | -14%
CCN1CCN(CCCNC(=O)c2cnn(-c3ccc(C)cc3)c2C2CCN(C(=O)OC(C)(C)C)CC2)CC1 | -2% | -49%
Cc1nn(CCC(=O)Nc2ccc(Cl)cc2)c(C)c1S(=O)(=O)N1CCCCC1 | ? | ?
COc1ccccc1C(=O)OCc1cc(=O)n2nc(-c3cccs3)sc2n1 | -1% | -5%
CCC(=O)Nc1ccc2nc(SCc3ccc(C)cc3)sc2c1 | -4% | -26%
CC(=O)N1CCc2c(sc3c2c(=O)n(Cc2ccccc2)c(=O)n3Cc2ccccc2Cl)C1 | ? | ?
CCOc1ccc(C(c2c(O)cc(C)n(Cc3ccco3)c2=O)N2CCCCC2)cc1 (configuration not stated) | -13% | -16%
COc1cccc(NC(=O)CSc2nc3c([nH]c4ccccc43)c(=O)n2-c2cccc(Cl)c2)c1 | -29% | -3%
Cc1cc2nn(-c3ccc(F)cc3)nc2cc1NC(=O)c1ccc(C(C)(C)C)cc1 | -2% | ?

molecule | HTT promoter inh | PMP22 txn
CCOC(=O)c1cc2c(=O)n3ccccc3nc2n(C(C)C)c1=NC(=O)c1c(-c2c(F)cccc2Cl)noc1C | -24% | 11µM*
CC(=O)N1CCC(N(CCCOC(C)C)C(=O)Nc2ccc(C)c(C)c2)CC1 | -18% | 14%
Cn1cc(C(=O)NCCc2ccc(Cl)cc2)c(=O)c2cc(S(=O)(=O)N3CCCCC3)ccc21 | -18%[11.5 µM] | 6%
Cc1cc(C)c(NC(=O)CN2C(=O)c3cccnc3Oc3ccc(Cl)cc32)c(C)c1 | -1% | 4%
Cc1cccc(C(=O)Nc2cc3nn(-c4ccc(C(C)C)cc4)nc3cc2C)c1 | 10% | ?
Cc1ccc(-n2c(SCC(=O)N3CCc4ccccc43)nc3c([nH]c4ccccc43)c2=O)cc1 | 9% | -31%
O=C(Cn1nc2c(cc1=O)CCCC2)Nc1ccc(F)cc1F | 4% | 6%
O=C(NCc1cccc(Cl)c1)C(=O)Nc1ccc2nc3n(c(=O)c2c1)CCCCC3 | 1% | -5%
CCCCN1CCCC1C(=O)Nc1c(C)cc(C)cc1C (configuration not stated) | 0% | /
COc1cccc(C(=O)Nc2ccccc2C(=O)OCc2cc(=O)n3c(C)csc3n2)c1 | -25% | -12%
CCc1c(C)nc2nncn2c1NCc1ccc(OC)cc1 | ? | ?
CCOc1ccccc1NC(=O)C1CCN(S(=O)(=O)c2ccc3[nH]c4c(c3c2)CCCCC4)CC1 | -27% | -8%
CCn1cc(CNC(=O)c2cc(-c3ccc(C)cc3)nc3ccc(Br)cc23)c(C)n1 | 6% | -33%
COc1ccc2nc(C)cc(Nc3ccc(Cl)c(Cl)c3)c2c1 | ? | ?
Cc1ccccc1OCCSc1nc(C)c(Cc2ccccc2)c(=O)[nH]1 | -22% | ?
Cc1ccccc1OCC(=O)Nc1ccc2nc(SCCOc3ccccc3)sc2c1 | 4% | ?
Cc1cccc(Cn2c(SCc3ccc(C(=O)NCCc4ccccc4)cc3)nc3ccncc32)c1 | -33% | ?
CCOc1ccc(NC(=O)C2Cc3ccccc3N2C(=O)c2ccccc2)cc1 (configuration not stated) | -15% | 2%
O=C(CCS(=O)(=O)c1cc(Br)cc2c1N(C(=O)C1CC1)CC2)Nc1ccc(F)cc1 | -13% | -18%
Cc1cccc(CSc2ccc3nnc(CCNS(=O)(=O)c4ccccc4)n3n2)c1 | -27% | ?
Cc1cccc(C)c1NC(=O)Cn1c(=O)n(Cc2ccc(C(=O)NCc3ccco3)cc2)c(=O)c2sccc21 | -13% | ?
COc1cc(NS(=O)(=O)c2cc3c(cc2C)N(C)CCO3)cc(OC)c1OC | ? | -6%
NS(=O)(=O)c1ccc(CCNC(=O)Cn2c(-c3cccs3)cc3ccccc32)cc1 | ? | ?
CCOc1ccc(Nc2nc(N)c(C(=O)c3ccccc3Cl)s2)cc1 | -29% | -62%
Cc1ccc(CCNC(=O)CCn2nc(-c3ccc(C)cc3)ccc2=O)cc1 | -1% | 0%

molecule | HTT promoter inh | PMP22 txn
CCOc1ccc(NS(=O)(=O)c2ccc3[nH]c4c(c3c2)CCCCC4)cc1 | ? | ?
Cc1ccc(S(=O)(=O)NCCc2sc3nc(-c4ccccc4)nn3c2C)cc1C | ? | ?
Cc1ccc(S(=O)(=O)c2nnn3c2nc(NCc2ccccc2Cl)c2sccc23)cc1 | -5% | ?
Cc1ccc(NC(=O)CCCn2c(=O)c3cccn3c3cccnc32)cc1C | 3% | ?
Cc1cccc(C(=O)NCC(=O)OCc2cc(=O)n3nc(C4CC4)sc3n2)c1 | -11% | -28%
O=C(CN1C(=O)COc2ccc(S(=O)(=O)N3CCCCCC3)cc21)NCc1ccc(F)cc1 | -14% | -15%
COc1ccc(-c2nc(SCC(=O)Nc3ccc4c(c3)OCCO4)c(-c3ccc(C)cc3)[nH]2)cc1OC | ? | -5%
CC(C)NC(=O)C1CCN(C(=O)N2CCOc3ccc(Cl)cc32)CC1 | -3% | 11%
CCN(CC)CCNC(=O)c1ccc(-n2c(-c3ccccc3)cc3c2CCCC3)cc1 | 10% | ?
CC(C)OCCCNC(=O)c1ccc2c(c1)N(Cc1c(F)cccc1Cl)C(=O)c1ccccc1S2 | ? | ?
O=C(COCc1cc(-c2cccs2)on1)Nc1cccc(O)c1 | -11% | -2%
CCn1nc(C)c(CCN(C)C(=O)Nc2cc(Cl)c(OC)cc2OC)c1C | 5% | -6%
CCOc1ccc(N(CC)C(=O)c2cc3c(s2)-c2ccccc2OC3)cc1 | ? | -22%
CCCCCCCCCCCCc1ccc(S(=O)(=O)Nc2nncs2)cc1 | 1% | /
Cc1cc(C)cc(NC(=O)CSc2oc(-c3ccco3)nc2S(=O)(=O)c2ccccc2)c1 | ? | -9%
Cc1oc2ncn(CC(C)C)c(=O)c2c1C(=O)NCCCN1CCC(C)CC1 | 13% | -3%
O=C(NCCc1ccccc1)c1c2c(nc3ccccc13)C(=O)N(C1CCCCC1)C2 | 18% | ?
CCOC(=O)COc1ccc(-c2nnn(CC(=O)Nc3ccccc3)n2)cc1 | 8% | ?
CCOc1ccc(/C=C/c2nc(C#N)c(N3CCN(c4ccc(OC)cc4)CC3)o2)cc1 | -2% | -5%
Cc1oc2c(c1C(=O)Nc1ccccc1Br)C1=NCCN1C=N2 | -2% | 85%
CCOC(=O)c1cccc(NC(=O)CCS(=O)(=O)c2ccc3c(c2)CC(=O)N3C)c1 | -8% | 0%
COc1ccc(-n2ccnc(NCCc3ccccc3)c2=O)cc1OC | -45% | -29%
COc1ccc(CNC(=O)CSc2nc3ccccc3nc2Cc2ccccc2OC)cc1 | -6% | -29%
